Screening results from PubChem BioAssay.
GIV Gai3 FP: inhibitors of GIV peptide binding to Galpha-i3, primary screen, biochemical, fluorescence polarization, FITC-GIV GBA peptide, rat Galphai3; 90 min; stronger effect = lower value; scaled: aluminum fluoride 0%, vehicle 100%; percent of control (FP), % (no concentration beside the values); Guanine nucleotide-binding protein G(i) subunit alpha-3 (Rattus norvegicus), P08753; actives 0.42% (n = 210,000); AID 1224905, 2016;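 active = replicate mean at 85% of control or lower, very high polarization wells dropped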;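 also: wells of about 15 µL received 100 nL stock; the first replicate is given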
Target sequence (P08753 whole entry, looked up): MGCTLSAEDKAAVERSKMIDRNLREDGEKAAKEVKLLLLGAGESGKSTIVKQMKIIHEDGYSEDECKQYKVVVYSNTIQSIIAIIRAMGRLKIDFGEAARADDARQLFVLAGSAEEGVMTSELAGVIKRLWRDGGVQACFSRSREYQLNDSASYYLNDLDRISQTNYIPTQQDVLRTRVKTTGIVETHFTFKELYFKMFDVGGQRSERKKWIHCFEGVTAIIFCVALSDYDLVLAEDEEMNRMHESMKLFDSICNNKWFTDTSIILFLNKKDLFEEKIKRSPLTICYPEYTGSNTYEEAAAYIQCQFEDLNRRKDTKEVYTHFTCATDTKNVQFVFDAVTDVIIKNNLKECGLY
Sa growth inh: S. aureus growth inhibition at 42 and 30 °C, primary screen, LtaS inhibitor project, RN4220, two temperatures | relative growth, % (no concentration beside the values) | OD600, 20 h, 42 °C; stronger effect = lower value | actives 0.53% (n = 170,000);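 active = growth at 42 °C up to 50% and 20 or more points under that at 30 °C, or under 10% at both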;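 also: 300 nL library stock went into each well; scaled to the means of positive and negative controls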
HCMV UL50-53 inh: inhibitors of HCMV UL50-UL53 interaction, biochemical, HTRF; HCMV UL50-UL53 nuclear egress complex (human cytomegalovirus); normalized percent inhibition; inhibition, % (test concentration not listed); actives 0.15% (n = 190,000);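 active = both replicates at 50% or more, plus weaker picks with an unusually low signal ratio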;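 also: stock transfer was 100 nL into about 20 µL; 0% = negative control wells and 100% = wells with untagged competitor protein; inactives centre near -12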
Sa growth inh second temp: recorded beside Sa growth inh, whose call it bears; relative growth, %; measured here: growth at 30 °C;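 optical density after 20 h as mean of two plates; 100% = untreated growth and lower means inhibition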
Numbers without * were called inactive; · = not tested or not shown; & = joins results of further samples. Rows are unselected; 0.8% or so of the library scored in one or more.

nr	smiles	GIV Gai3 FP	Sa growth inh
1	O=C(NCc1cccs1)C1CCN(c2ccc(S(=O)(=O)N3CCOCC3)cc2Cl)CC1	99	108
2	NCc1nnc2ccccn12	·	97
3	Cc1ccc2c(c1)C=C(C(=O)Nc1ccc(N3CCOCC3)cc1)C=CO2	102	·
4	COc1ccc(C(=O)NC(Cc2ccccc2)C(=O)N2CCCCC2)cc1 (stereo unspecified)	·	103
5	COc1ccc(C(=O)Oc2ccc(C(c3c(C)[nH][nH]c3=O)c3c(C)[nH][nH]c3=O)cc2OC)cc1	104	114
6	COc1ccc(C)cc1NC(=O)c1ccc(=O)n(Cc2ccccc2)c1	100	107
7	CCc1ccc2oc(-c3ccc(NC(=O)c4ccc(OC)c(Br)c4)cc3)nc2c1	103	106
8	Cc1sc2nc3n(c(=O)c2c1C)N=C(c1ccc(F)cc1)CS3	109	94
9	COc1ccc(Cl)cc1C(=O)Nc1ccc(NC(=O)c2ccco2)cc1	·	106
10	CCC(C)N=C1CC(C)(C)CC(=O)/C1=C(\O)Cc1ccccc1 (stereo unspecified)	·	118
11	COc1ccc(-c2noc(CNS(=O)(=O)c3ccccc3)n2)cc1	100	112
12	CC1CC(C)CN(C(=O)CCCc2c[nH]c3ccccc23)C1 (stereo unspecified)	101	102

nr	Sa growth inh second temp	HCMV UL50-53 inh
1	87	3
2	90	-30
3	·	-33
4	88	2
5	73	-37
6	90	·
7	86	-43
8	91	-35
9	76	-19
10	93	-19
11	88	-4
12	100	-2

(next part)
nr	smiles	GIV Gai3 FP	Sa growth inh
13	Cc1ccc(C)c(S(=O)(=O)N/N=C/c2ccc3c(c2)OCCO3)c1	·	77
14	Cc1[nH]c(C)c(S(=O)(=O)N2CCC(C(=O)NCc3ccc4c(c3)OCO4)CC2)c1C(=O)N1CCCCC1	107	·
15	COc1ccc(N2C(=N)C(C)(C)NC2=O)cc1	102	108
16	COc1ccc(N(CC(O)CN2CCCC2)S(=O)(=O)c2ccccc2)cc1 (stereo unspecified)	101	105
17	Cc1cc(Sc2nnc(/N=C/N(C)C)s2)c2ccccc2n1	94	91
18	COc1ccc(C2=NN(CC(=O)NCCc3ccccc3)C(=O)CC2)cc1	104	92
19	COc1ccc(-n2c(O)c(C3=c4cc(Br)ccc4=NC3=O)sc2=S)cc1	110	·
20	C(=N\N1CCOCC1)/c1cccc(/C=N/N2CCOCC2)c1	·	93
21	O=C1/C(=C/c2ccc(F)cc2)COC/C1=C\c1ccc(F)cc1	100	97
22	Nc1scc[n+]1CC(=O)N1CCCc2ccccc21	·	77
23	CC(C)C1NC(=S)N(c2ccccc2)N1 (stereo unspecified)	100	116
24	N#CC1=C(N)SC(N)=C(C#N)C1c1cccs1	-54*	79

nr	Sa growth inh second temp	HCMV UL50-53 inh
13	90	-27
14	·	-12
15	76	-9
16	73	-10
17	92	-4
18	97	·
19	·	6
20	84	-59
21	102	2
22	94	4
23	100	-10
24	29	-48

Other records.
nr	smiles	GIV Gai3 FP	Sa growth inh
25	O=C(NC1CCCCC1)C(c1ccccn1)N(Cc1ccc2c(c1)OCO2)C(=O)C(F)(F)F (stereo unspecified)	·	109
26	O=C(CN1CCN(c2ccc(O)cc2)CC1)Nc1cc(C(F)(F)F)ccc1N1CCOCC1	·	96
27	Cc1cc(S(=O)(=O)C(CNC(=O)c2ccc(F)c(F)c2)c2cccs2)ccc1F (stereo unspecified)	104	96
28	COc1ccc2ncc(C(=O)N3CCOCC3)c(Cl)c2c1	·	97
29	COc1ccc(/C=N/c2nc3ccccc3n2C)cc1OC	96	91
30	O=C(c1cnc2ccc(Cl)cc2c1S(=O)(=O)c1ccc(F)c(Cl)c1)N1CCSCC1	100	·
31	Cc1ccccc1CNCCSc1nnnn1-c1ccccc1	98	103
32	O=c1nc(SCc2ccc(F)cc2)c2c(n1CCc1ccccc1)CCC2	106	·
33	O=C(NCc1cn2ccccc2n1)c1cc(F)c(F)c(F)c1F	·	101
34	C[N+]1(CC(=O)OCCCc2ccccc2)CCOCC1	100	126
35	O=C(NCc1cc(=O)n2nc(-c3ccccc3)sc2n1)Nc1cccc(F)c1	104	·
36	O=S(=O)(c1ccccc1)c1nnn2c1nc(NC1CCCCCC1)c1sccc12	106	116

nr	Sa growth inh second temp	HCMV UL50-53 inh
25	89	-11
26	92	-28
27	90	·
28	88	-14
29	80	·
30	·	-3
31	81	-28
32	·	-22
33	96	-2
34	83	·
35	·	-30
36	96	·

(more compounds)
nr	smiles	GIV Gai3 FP	Sa growth inh
37	Cc1cc(=O)oc2cc(OCC(=O)N3CCCC(C)C3)ccc12 (stereo unspecified)	·	143
38	CN(CC(=O)Nc1ccc(N2CCOCC2)cc1)c1ncnc2sccc12	·	95
39	O=C(CCc1c[nH]c2ccccc12)NCC(F)(F)F	·	104
40	Cc1cccc(N2C(=O)/C(=C3/C(=O)N(CC(=O)O)c4ccccc43)SC2=S)c1C	·	91
41	O=C(O)c1cccc(-c2ccc(CO)o2)c1	92	103
42	CSc1nnc(SC2=CC(=O)CC(c3ccccc3)C2)s1 (stereo unspecified)	104	95
43	NC(=NC(=O)c1ccc(Cl)cc1)c1cccs1	105	78
44	Cc1cccc(N2CCN(S(=O)(=O)c3ccc(F)c(C(=O)Nc4ccc(C(C)C)cc4)c3)CC2)c1C	100	121
45	O=C(COc1ccc(-c2nnco2)cc1)NC1CCS(=O)(=O)C1 (stereo unspecified)	·	92
46	CC1(C)C(=O)N(CC(=O)N2CCN(c3ccc(Cl)cc3)CC2)c2ccccc21	94	·
47	CC(=O)NC(C)c1nc(-c2ccc(C(C)(C)C)cc2)no1 (stereo unspecified)	103	·
48	CN(C)S(=O)(=O)c1ccc(C(=O)NCCSc2c(-c3ccc(Cl)cc3)[nH]c3ccccc23)cc1	107	100

nr	Sa growth inh second temp	HCMV UL50-53 inh
37	90	-8
38	86	-20
39	95	-1
40	99	8
41	88	-19
42	56	-20
43	28	2
44	84	·
45	94	-13
46	·	8
47	·	-12
48	90	-11

Next section, overlapping the part above by 3 compounds.
nr	smiles	GIV Gai3 FP	Sa growth inh
46	CC1(C)C(=O)N(CC(=O)N2CCN(c3ccc(Cl)cc3)CC2)c2ccccc21	94	·
47	CC(=O)NC(C)c1nc(-c2ccc(C(C)(C)C)cc2)no1 (stereo unspecified)	103	·
48	CN(C)S(=O)(=O)c1ccc(C(=O)NCCSc2c(-c3ccc(Cl)cc3)[nH]c3ccccc23)cc1	107	100
49	COc1ccc(C)cc1NC(=O)NCCn1nnc2cc(S(=O)(=O)N(C)C)ccc21	105	108
50	O=C1C2C(c3ccccc3)C=CC(c3ccccc3)C2C(=O)N1c1ccc(O)cc1 (stereo unspecified)	100	100
51	C=CCNc1nc(N)c(C(=C(C#N)C#N)c2ccccc2)s1	122	85
52	CN(C)c1nc(Oc2ccc(/C=N/O)cc2)nc(N(C)C)n1	106	85
53	CN(C)C(=O)c1ccccc1C(=O)N(C)C	·	89
54	CCC(=O)Oc1ccc(C(=O)Nc2nccs2)cc1	104	84
55	Cn1c(-c2ccc(C(C)(C)C)cc2)n[nH]c1=S	106	96
56	N#CC(CC(=O)c1ccccc1)c1ccccc1 (stereo unspecified)	·	96
57	O=c1c2ccccc2c(-c2nnc(SCc3ccc(F)cc3)o2)nn1Cc1ccccc1	·	91
58	O=S(=O)(c1ccccc1)N1CCCC1c1cccs1 (stereo unspecified)	103	95
59	CCN(CC)C(=O)C1=CC(c2ccc(OC)cc2)=NS(=O)(=O)N1C	97	96
60	CC(C)c1ccc2nc(-c3ccc(N)cc3)[nH]c2c1	106	95

nr	Sa growth inh second temp	HCMV UL50-53 inh
46	·	8
47	·	-12
48	90	-11
49	90	·
50	92	-7
51	72	0
52	86	-4
53	87	-12
54	98	-39
55	88	18
56	83	-20
57	91	6
58	91	5
59	100	·
60	79	-3

(next part)
nr	smiles	GIV Gai3 FP	Sa growth inh
61	CC(C)c1nc2sc3c(c2c(=O)n1N)CC(C)(C)OC3	104	79
62	Cc1ccc(C=Nc2ccc(F)c(F)c2)o1	·	76
63	COc1ccc(-c2nc3n(c2C(=O)N2CCOCC2)CCS3(=O)=O)cc1	110	·
64	O=C(O)CN1CCN(Cc2ccccc2)C1=O	98	104
65	CCN(CC)C(=O)/C(C#N)=C/c1cn(-c2ccccc2)nc1-c1ccccc1	·	104
66	NC(c1ccc2c(c1)CCCC2)c1cccs1 (stereo unspecified)	·	100
67	c1coc(CCC2NCCn3cccc32)c1 (stereo unspecified)	·	102
68	Cc1c(C(=O)O)sc2nc[nH]c(=O)c12	·	106
69	COc1ccccc1N1CC(c2nc3ccccc3n2CC(O)COc2ccccc2)CC1=O (stereo unspecified)	107	·
70	Cc1cc(C)c2c(n1)SCC(=O)N2CC(=O)Nc1ccccc1C	105	96
71	CCOC(=O)c1c(O)cc(C)[nH]c1=O	99	106
72	O=C(CCCn1c(=O)[nH]c2ccsc2c1=O)N1CCN(c2ccc(Cl)cc2)CC1	105	87

nr	Sa growth inh second temp	HCMV UL50-53 inh
61	106	-31
62	86	-25
63	·	-7
64	87	·
65	73	-22
66	82	-23
67	87	-17
68	86	5
69	·	-11
70	94	-30
71	95	0
72	92	-15

Structures shown so far that have a tert-butyl group, in the order listed:
nr	smiles	GIV Gai3 FP	Sa growth inh
47	CC(=O)NC(C)c1nc(-c2ccc(C(C)(C)C)cc2)no1 (stereo unspecified)	103	·
55	Cn1c(-c2ccc(C(C)(C)C)cc2)n[nH]c1=S	106	96

nr	Sa growth inh second temp	HCMV UL50-53 inh
47	·	-12
55	88	18

(cont.)
nr	smiles	GIV Gai3 FP	Sa growth inh
73	Cc1cc(/C=N/n2cnnc2)c(C)n1-c1cccc(C(F)(F)F)c1	101	93
74	CC(=O)N1CCC2(CC1)CC(=O)c1cc(OCC(=O)O)ccc1O2	103	101
75	COC(OC)c1ccc(C#N)c(SC)n1	101	100
76	O=C(NCC(c1cccs1)S(=O)(=O)c1cccs1)c1ccccc1 (stereo unspecified)	97	138
77	CCc1ccc(NC(=O)Cc2csc(-n3nc(C)cc3C)n2)cc1	102	·
78	CCOC(=O)COc1cc(C)c(Cl)cc1C(=O)c1ccn2nc(-c3ccc(OC)cc3)cc2n1	107&106	83
79	Cc1ccc(S(=O)(=O)Nc2ccc(C(=O)Nc3nccs3)cc2)cc1	102	90
80	Cc1c(Cl)cccc1NC(=S)N(C)CCC#N	·	85
81	Cc1c(C(=O)N(Cc2ccccc2F)C2CCS(=O)(=O)C2)oc2ccc(F)cc12 (stereo unspecified)	102	104
82	Cn1c(=O)c2cc(C(=O)NCc3ccco3)sc2c2ccc(Cl)cc21	100	106
83	COc1ccc(-c2nnc(SCC(=O)NCCC3=CCCCC3)o2)cc1	·	84
84	Nc1cc(=O)[nH]c(=S)n1-c1ccccc1	102	97

nr	Sa growth inh second temp	HCMV UL50-53 inh
73	85	·
74	84	·
75	88	1
76	77	·
77	·	-29
78	98	-35&7
79	59	-13
80	91	-9
81	84	10
82	91	-9
83	92	-11
84	68	-8

The results go on.
nr	smiles	GIV Gai3 FP	Sa growth inh
85	Cn1c(=O)c2c(SCC(N)=O)nc(CC(C)(C)C)nc2n(C)c1=O	103	92
86	CCOCCCNC(=O)c1cnc2sc(N3CCCCCC3)nn2c1=O	98	106
87	O=C(Nc1cccc(Cl)c1)N1CCc2nc(N3CCCCC3)ncc2C1	113	·
88	COC(=O)Nc1ccc(S(=O)(=O)N2CCN(CCN3C(=O)C4C5C=CC(C5)C4C3=O)CC2)cc1 (stereo unspecified)	99	·
89	CCc1ccc(NC(=O)c2ccnc(C(C)(C)C)c2)cc1	100	97
90	Cc1ccc(Cc2c(C)nc3nc(SCC(=O)NC4CCC(C)CC4)nn3c2C)cc1 (stereo unspecified)	102	104
91	Clc1cccc(N2CCN(c3ncnc4[nH]ncc34)CC2)c1	·	96
92	COc1ccc(/C(C#N)=C/c2c(Cl)cccc2Cl)cc1	106	98

nr	Sa growth inh second temp	HCMV UL50-53 inh
85	80	-24
86	94	·
87	·	4
88	·	-31
89	96	-3
90	100	·
91	83	-10
92	90	1
